# NS1 inh: influenza NS1 inhibition; 270,000 compounds, 0.4% hits; S. cerevisiae slowed by influenza A NS1, growth recovery by OD600; Potency, µM (top dose mostly 46.1 µM), for inactives: top-dose activity, positive = more growth; AID 2326; active means well fitted rising curve with a large enough effect; inconclusive means small, poorly fitted or top-dose-only effect; inactive means no such curve, though single readings can be large or run the other way; note: nearly all actives have a fitted effect of over 50% in size
#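 A cell-based growth assay was used: compounds that relieve NS1-induced slow growth of budding yeast raise OD600. Assay medium was yeast nitrogen base with ammonium sulphate and -URA supplement, pH 6.0, with 2% galactose.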
# MARV entry inh: blocks Marburg virus binding to or entry into cells; Potency, µM (titrated, usually from 37.8 µM), inactives show at the highest dose activity change, negative = inhibition, hits mostly inhibitors; Marburg virus pseudotyped entry inhibition, cell reporter; control for the full effect not named in the record; about a third of the inactives were read at about 46 µM; 300,000 compounds, 1.8% hits; active = well fitted inhibition curve with a large enough effect; inconclusive = small, poorly fitted or top-dose-only effect, or effect the other way; inactive = flat fitted curve, though single readings scatter; tested in HEK293 cells; about a fifth of its hits are not listed in these tables; note: % is set by controls: 0 for no effect and ±100 for the full control effect; luciferase read-out
# Cruzain Triton: blocks cruzain activity in presence of Triton detergent; 200,000 compounds, 0.43% hits; Potency, µM, for the others: max response, negative = inhibition, actives largely listed as inhibitors; purified cruzain, Z-FR-AMC fluorescence, 0.01% Triton; AID 1478;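 note: plate controls were neutral wells for no effect and buffer without enzyme for full effect; nearly all actives have a fitted effect of over 40% in size; top concentration of the series not given in the record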
# Target sequence (P25779 123-467 limits assumed): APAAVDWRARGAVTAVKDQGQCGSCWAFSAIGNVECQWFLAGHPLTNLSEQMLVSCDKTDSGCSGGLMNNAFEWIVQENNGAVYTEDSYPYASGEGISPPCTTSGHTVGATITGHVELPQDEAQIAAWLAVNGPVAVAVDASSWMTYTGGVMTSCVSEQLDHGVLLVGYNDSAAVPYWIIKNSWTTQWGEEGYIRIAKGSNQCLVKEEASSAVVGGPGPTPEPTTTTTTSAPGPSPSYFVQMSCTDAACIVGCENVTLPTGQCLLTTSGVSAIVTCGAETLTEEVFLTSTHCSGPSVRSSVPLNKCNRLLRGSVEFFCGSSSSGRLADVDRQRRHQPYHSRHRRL
#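 Detergent-containing run (0.01% Triton X-100) in acetate buffer pH 5.5 with 5 mM DTT: enzyme at 1.5 nM final, 15 min compound preincubation at room temperature, then 2 uM Z-FR-AMC substrate. Activity taken as 60 s fluorescence increase at 360/450 nm.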
# LASV entry inh: inhibitors of Lassa virus binding or cell entry; Potency, µM (top dose mostly 37.9 µM), without a hit: at the top dose activity change, negative = inhibition, actives largely listed as inhibitors; 300,000 compounds, 1.2% hits; Lassa virus pseudotype entry inhibition, cell reporter; control for the full effect not named in the record; AID 540256; active means well fitted inhibition curve with a large enough effect; inconclusive means small, poorly fitted or top-dose-only effect, or effect the other way; inactive means flat fitted curve, though single readings scatter; tested in HEK293 cells; note: % is set by controls: 0 for no effect and ±100 for the full control effect; nearly all actives have a fitted effect of over 50% in size; luciferase read-out
# Cruzain noTriton: blocks cruzain activity in detergent-free assay; P25779; purified cruzain, Z-FR-AMC fluorescence, no detergent; Potency, µM, for the others: max response, negative = inhibition, usual class: inhibitors; 200,000 compounds, 2.3% hits; AID 1476;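 note: plate controls were enzyme without inhibitor for no effect and buffer without enzyme for full effect; nearly all actives have a fitted effect of over 40% in size; top concentration of the series not given in the record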
#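 Purified cruzain at 1.5 nM, pre-incubated 15 min with compound at room temperature in 100 mM sodium acetate pH 5.5, 5 mM DTT, 0.00005% Triton X-100. Reaction started with 2 uM Z-FR-AMC; AMC fluorescence increase over 60 s gives rate.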
# An asterisk follows results filed as active; ? = inconclusive; nt = no result given; & = joins results of further samples; [ ] = another dose, or the depositor's remark. Unless noted, calls come from the whole dose curve; as a rule, active = well fitted curve in the direction sought with a large enough effect; inconclusive = small, poorly fitted or top-dose-only effect, or another doubt; inactive = no such curve, though single readings can be large; an effect the other way counts as inactive or inconclusive. Potency is the fitted concentration of half-maximal effect. The list is partial (hit frequency here may not be typical).
SMILES	LASV entry inh	Cruzain noTriton	MARV entry inh	NS1 inh	Cruzain Triton
COC(=O)C1=C(C)N(Cc2ccccc2)C(=S)NC1c1ccccc1 (stereo not drawn)	nt	nt	?	nt	nt
O=C1C(C(=O)N(c2ccccc2)C2CCCCC2)C=NC2SCCN12 (stereo not drawn)	nt	nt	16%	nt	nt
O=C1C=C(O)C[C@H](c2cccs2)C1	nt	nt	21%	nt	nt
CC(CC1=C2C=CC=CC2N=C1)NC(N)=O (stereo not drawn)	nt	nt	5%[46.1 µM]	nt	nt
COC1=C[C@H](C(=O)NCCNC(C)=O)[C@H](C)[C@@H](c2ccccc2)CC1=O	nt	nt	?	nt	nt
O=C1[C@@H]2[C@H](ON(c3ccccc3)[C@H]2c2ccncc2)C(=O)N1c1ccccc1	nt	nt	18%	nt	nt
COc1ccc(C(=O)CC(=O)c2c(O)cc(OC)cc2OC)cc1	nt	nt	18%&18%[14.2 µM]	nt	nt
COc1cccc(CN2c3ccc(Br)cc3C(O)CS2(=O)=O)c1 (stereo not drawn)	nt	nt	?	nt	nt
CC(C)CO/N=C1\C[C@@H](O)[C@@H](O)[C@@H]2[C@@H]3C(=O)N(c4ccc(F)cc4F)C(=O)[C@@H]3CC[C@H]12	nt	nt	?	nt	nt
COc1cccc([C@H]2NC(=O)CC=C[C@H](C)[C@@H](c3cccc(OC)c3)NC(=O)CC=C[C@H]2C)c1	nt	nt	?	nt	nt
COc1cccc(CO[C@H]2C=C[C@@H](c3ccccc3)O[C@H]2CO)c1	nt	nt	-7%[14.2 µM]	nt	nt
CC(C)=CCCC(C)=CCON=C1C[C@@H](O)[C@@H](O)[C@@H]2[C@H]3C(=O)N(C[C@@H]4CCCO4)C(=O)[C@@H]3CC[C@@H]12	nt	nt	-5%[14.2 µM]	nt	nt
O=S1(=O)c2cccc(Cl)c2OC[C@H](c2ccccc2)N1Cc1ccc(Cl)cc1	nt	nt	?	nt	nt
CCCC[C@]12Cc3ccccc3[C@H](O1)c1c(cc(-c3ccccc3)oc1=O)O2	nt	nt	?	nt	nt
C=CCOC(=O)[C@H](C#N)c1nc2ccccc2nc1N1CCC(C(=O)OCC)CC1	nt	nt	-4%	nt	nt
COCCN1C(=O)C2=C(C1=O)C1N(C)c3ccccc3[C@@]13C[C@@H](CO)N(C(=O)CCC(=O)OC)C3=N2 (stereo partly drawn)	nt	nt	5%[14.2 µM]	nt	nt
C=CCc1cccc(/C=N\n2cnnc2)c1O	nt	nt	38%	nt	nt
COC(=O)[C@H](C=C[C@H](C)Cc1cc(Br)cc(OCc2ccccc2)c1OC)OCc1ccccc1	nt	nt	-15%[14.2 µM]	nt	nt
CCOC(=O)Nc1c[n+](N2CCOCC2)no1	nt	nt	1%	nt	nt
COC(=O)C/C=C\[C@@H](C)[C@@H](/C=N\OC[C@@H](O)COCc1ccco1)OC	nt	nt	-14%[14.2 µM]	nt	nt
CCN1C(=NCc2ccco2)N[C@@H](c2ccccc2)[C@H](C(=O)OC)[C@H]1C	nt	nt	13%[14.2 µM]	nt	nt
COC(=O)C1=C(C(=O)OC)[C@@H]2N(Cc3ccccc3)c3ccccc3[C@@]23C[C@@H](CO)N(C(=O)CC(C)C)C3=N1	nt	nt	-38%[14.2 µM]	nt	nt
COC(=O)[C@@H]1[C@@H](C)N(CCc2cc(OC)c(OC)c(OC)c2)C(=O)N[C@H]1c1ccccc1	nt	nt	-31%[14.2 µM]	nt	nt
N/C(CCCN1CCCCC1)=N\O	nt	nt	4%	nt	nt
CSc1ccc(Oc2cccc3c2S(=O)(=O)N([C@H](C)c2ccccc2)C[C@@H](COCc2ccccc2)O3)cc1C	nt	nt	?	nt	nt
O=C1N=C2CCCCC2=C1c1sc(N[S+](=O)([O-])C2CCCCC2)nc1O	nt	nt	16%[46.1 µM]	nt	nt
CC1(C)C[C@H](n2[nH]c(=O)c3c2NC(=O)CS[C@@H]3c2ccccc2)CCO1	nt	nt	14%	nt	nt
COc1cc([C@@H](O)CN)ccc1O	nt	nt	?	nt	nt
C[C@H]1COc2cc(N3CCCCC3)ccc2S(=O)(=O)N1	nt	nt	?	nt	nt
C#CCN1C(=O)[C@@]2(CC(C)=CC[C@@H](C)O2)c2ccccc21	nt	nt	16%[14.2 µM]	nt	nt
CC(C)[C@@H](OCc1ccccc1)[C@H](C)CO/N=C1/[C@H]2CCn3c(=O)n(-c4ccccc4)c(=O)n3[C@H]2[C@H](O)[C@@H]2O[C@H]12	nt	nt	25%[14.2 µM]	nt	nt
CCN1C(=NCCc2ccc(Br)cc2)NC(c2ccccc2)C(C(=O)OC)=C1C (stereo not drawn)	nt	nt	?	nt	nt
O=C1[C@H]2[C@H]3[C@H](O)[C@H](O)C/C(=N\OC[C@@H](O)COCc4ccco4)[C@H]3CC[C@H]2C(=O)N1Cc1ccccc1	nt	nt	-4%[14.2 µM]	nt	nt
CCOC(=O)C1=C(CSc2nc(C)cc(C)c2C#N)OC(N)=C(C#N)[C@H]1c1cccs1	nt	nt	-29%[46.1 µM]	nt	nt
COc1ccc([C@]23Cc4ccccc4[C@H](O2)c2c(cc(-c4ccccc4)oc2=O)O3)cc1	nt	nt	?	nt	nt
O=C1[C@@H]2[C@H]3[C@H](O)[C@H](O)CC(=NOC[C@@H](O)COCc4ccco4)[C@@H]3CC[C@H]2C(=O)N1Cc1ccccc1	nt	nt	-4%[14.2 µM]	nt	nt
COC(=O)N[C@H](c1ccccc1)C(C(=O)OC)C(=O)OC	nt	nt	28%[14.2 µM]	nt	nt
O=C(C1CCCCC1)N1C[C@H](n2cc(-c3ccc(F)cc3)nn2)[C@H](O)C[C@@H]1c1ccc(Cl)cc1	nt	nt	3.5µM*	nt	nt
Cc1nc2c(o1)CCc1ccccc1[C@H]2N1CCN(C)CC1	nt	nt	-15%	nt	nt
C#CCCCO/N=C1/C[C@@H](O)[C@@H](O)[C@@H]2[C@@H]3C(=O)N(C(C)(C)C)C(=O)[C@H]3CC[C@H]12	nt	nt	12%[14.2 µM]	nt	nt

# Ordered by count of non-hydrogen atoms (low to high): some entries from above.
SMILES	LASV entry inh	Cruzain noTriton	MARV entry inh	NS1 inh	Cruzain Triton
COC(=O)N[C@H](c1ccccc1)C(C(=O)OC)C(=O)OC	nt	nt	28%[14.2 µM]	nt	nt
C#CCCCO/N=C1/C[C@@H](O)[C@@H](O)[C@@H]2[C@@H]3C(=O)N(C(C)(C)C)C(=O)[C@H]3CC[C@H]12	nt	nt	12%[14.2 µM]	nt	nt
O=C1[C@@H]2[C@H]3[C@H](O)[C@H](O)CC(=NOC[C@@H](O)COCc4ccco4)[C@@H]3CC[C@H]2C(=O)N1Cc1ccccc1	nt	nt	-4%[14.2 µM]	nt	nt

# Carrying on.
SMILES	LASV entry inh	Cruzain noTriton	MARV entry inh	NS1 inh	Cruzain Triton
CC(C)=CCC/C(C)=C/CO/N=C1\C[C@@H](O)[C@@H](O)[C@@H]2[C@@H]3C(=O)N(C[C@@H]4CCCO4)C(=O)[C@@H]3CC[C@@H]12	nt	nt	22%[14.2 µM]	nt	nt
C[C@@]1(c2ccco2)NC(=O)NC1=O	nt	nt	10%	nt	nt
COc1ccc(CCn2c(C)cc3c(c2=O)[C@H](c2ccc4c(c2)OCO4)C(C#N)=C(N)O3)cc1OC	nt	nt	-28%	nt	nt
COC(=O)C1=C2CCCO[C@H]2[C@@H]2[C@@H](C)[C@H](OC)c3ccccc3[C@@H]12	nt	nt	2%[14.2 µM]	nt	nt
Cc1ccc2oc(C(=O)Nc3c(C)n(C)n(-c4ccccc4)c3=O)c(C)c2c1	nt	nt	5%	-2%	nt
Cc1cc(N2CCC3(CC2)OCCO3)n2nc(C)c(-c3ccc(Cl)cc3)c2n1	nt	nt	1%	-5%	nt
CCOC(=O)C1CCCN(C(=O)c2cc3c(=O)n4cccc(C)c4nc3n2C)C1 (stereo not drawn)	nt	nt	-5%	-5%	nt
Cn1c(=O)c2nc(Cl)n(Cc3ccc(Cl)cc3Cl)c2n(C)c1=O	nt	nt	0%	-6%	nt
O=C(O)CCC(=O)NC1CCCCC1NC(=O)CCC(=O)O (stereo not drawn)	nt	nt	6%	12%	nt
O=C(CN1CCCN(S(=O)(=O)c2ccc(Br)cc2)CC1)Nc1ccc2cn[nH]c2c1	nt	nt	0%	-28%	nt
Cc1nc(NC2=NCN(CCc3ccccc3)CN2)nc2c(C)cccc12	nt	nt	1%	14%	nt
N#C/C(C(=O)N1CCOCC1)=C1/SC=C(c2ccccc2)N1c1ccccc1	nt	nt	-5%	5%	nt
Cc1cc(C)n(-c2nc3c(c(=O)n(Cc4ccc(Cl)c(Cl)c4)c(=O)n3C)n2C)n1	nt	nt	0%	11%	nt
COc1nc(-c2ccc(Cl)cc2)ccc1-c1noc(-c2ccncc2)n1	nt	nt	-2%	-11%	nt
CCC1Cc2c(nc3c4c(nc(N5CCOCC5)c(C#N)c24)NC(C)=N3)O1 (stereo not drawn)	nt	nt	-3%	5%	nt
CCOC(=O)C1=C(c2ccccc2)N2CCN=C2S1	nt	nt	3%	1%	nt
CCOc1ccc(C2/C(=C(/O)c3ccccc3)C(=O)C(=O)N2CCCN(C)C)cc1OC (stereo not drawn)	nt	nt	0%	8%	nt
c1cc(-c2nc3ccccc3o2)nc(-c2nc3ccccc3o2)c1	nt	nt	-6%	2%	nt
COc1cc(OC)cc(-c2nnc(SCC(=O)Nc3cc(C)on3)o2)c1	nt	nt	-1%	?	nt
Cn1nc(-c2ccc(C(=O)N3CCN(c4ccccc4)CC3)cc2)c2ccccc2c1=O	nt	nt	-6%	4%	nt

# Some values from the list:
# COc1nc(-c2ccc(Cl)cc2)ccc1-c1noc(-c2ccncc2)n1 in NS1 inh is entered as -11%
# Cc1cc(C)n(-c2nc3c(c(=O)n(Cc4ccc(Cl)c(Cl)c4)c(=O)n3C)n2C)n1 in NS1 inh is entered as 11%
# c1cc(-c2nc3ccccc3o2)nc(-c2nc3ccccc3o2)c1 in NS1 inh is entered as 2%
# CCOC(=O)C1=C(c2ccccc2)N2CCN=C2S1 in MARV entry inh is entered as 3%
# Cn1nc(-c2ccc(C(=O)N3CCN(c4ccccc4)CC3)cc2)c2ccccc2c1=O in NS1 inh is entered as 4%
# CCOc1ccc(C2/C(=C(/O)c3ccccc3)C(=O)C(=O)N2CCCN(C)C)cc1OC (stereo not drawn) in MARV entry inh is entered as 0%

# New compounds follow:
SMILES	LASV entry inh	Cruzain noTriton	MARV entry inh	NS1 inh	Cruzain Triton
Clc1ccc(Cc2nn3c(-c4ccncc4)nnc3s2)cc1	nt	nt	1%	-16%	nt
CC(C)Cn1c(=O)c(C2=NS(=O)(=O)c3ccccc3N2)c(O)c2ccccc21	nt	nt	0%	-3%	nt
CSc1nnc2n(CCc3ccccc3)c(=O)c3c4c(sc3n12)CCCC4	nt	nt	3%	12%	nt
c1cncc(-c2nnc(SCCSc3nnc(-c4cccnc4)o3)o2)c1	nt	nt	4%	3%	nt
CCc1nnc2n1N=C(c1ccc(-c3ccc(Cl)cc3Cl)o1)CS2	nt	nt	0%	2%	nt
COc1ccc(CNC(=O)c2cc3c(=O)n4ccccc4nc3n(Cc3ccco3)c2=N)cc1	nt	nt	6%	0%	nt
Cc1cc(C)c2cc(CN(CC3CCCO3)C(=O)NC3CCCCC3)c(=O)[nH]c2c1 (stereo not drawn)	nt	nt	5%	0%	nt
CN(C)CCNC(=O)C1CCN(Cc2cc3ccccc3n2Cc2ccccc2)CC1	?	-4%	nt	nt	-0.2%

# Screens as filed in PubChem.
